NPR1 antag = human Npr1 receptor antagonism; P16066; HEK293 hNpr1 GloSensor cGMP, ANP-stimulated luminescence; Potency, µM (highest dose often 46.3 µM), for inactives: at the highest dose activity change, negative = inhibition, hits mostly inhibitors; actives 1.6% (n = 76,000); active = well fitted inhibition curve with a large enough effect; inconclusive = small, poorly fitted or top-dose-only effect; inactive = no such curve, though single readings can be large or run the other way;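 further: nearly all actives have a fitted effect of over 60% in size; nearly all hits also lower the signal before the agonist is added; a reference antagonist and vehicle were the controls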
Target sequence (P16066 whole entry, looked up): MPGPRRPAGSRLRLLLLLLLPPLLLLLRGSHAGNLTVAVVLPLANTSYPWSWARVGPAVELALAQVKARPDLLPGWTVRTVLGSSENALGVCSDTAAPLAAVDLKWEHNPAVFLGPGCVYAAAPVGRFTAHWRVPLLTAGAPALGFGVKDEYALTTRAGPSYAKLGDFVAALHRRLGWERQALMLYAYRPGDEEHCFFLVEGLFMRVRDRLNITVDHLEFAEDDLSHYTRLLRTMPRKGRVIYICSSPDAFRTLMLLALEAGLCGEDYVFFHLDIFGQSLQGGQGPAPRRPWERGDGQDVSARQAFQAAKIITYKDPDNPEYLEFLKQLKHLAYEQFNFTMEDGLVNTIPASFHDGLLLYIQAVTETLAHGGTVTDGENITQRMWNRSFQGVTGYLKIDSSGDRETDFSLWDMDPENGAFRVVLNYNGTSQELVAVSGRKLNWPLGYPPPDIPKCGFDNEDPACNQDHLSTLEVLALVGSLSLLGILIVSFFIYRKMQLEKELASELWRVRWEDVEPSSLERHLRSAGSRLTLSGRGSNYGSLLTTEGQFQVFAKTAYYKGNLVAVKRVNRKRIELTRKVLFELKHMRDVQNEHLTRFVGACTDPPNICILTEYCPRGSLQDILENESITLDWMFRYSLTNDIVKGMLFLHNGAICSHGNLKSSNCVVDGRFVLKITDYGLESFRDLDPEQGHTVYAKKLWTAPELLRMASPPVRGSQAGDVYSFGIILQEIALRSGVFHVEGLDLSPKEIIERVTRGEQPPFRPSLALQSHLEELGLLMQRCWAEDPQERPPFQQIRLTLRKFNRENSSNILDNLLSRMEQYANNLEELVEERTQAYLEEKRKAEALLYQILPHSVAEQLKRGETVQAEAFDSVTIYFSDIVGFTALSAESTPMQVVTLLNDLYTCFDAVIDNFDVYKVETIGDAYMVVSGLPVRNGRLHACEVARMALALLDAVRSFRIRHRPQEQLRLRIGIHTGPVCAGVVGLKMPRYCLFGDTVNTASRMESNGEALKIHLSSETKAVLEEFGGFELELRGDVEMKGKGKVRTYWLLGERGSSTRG
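HEK293 cells stably expressing human Npr1 and cGMP GloSensor pGS-40F, loaded 2 h with 2% GloSensor reagent, given compound 30 min at room temperature. Luminescence read before and 20 min after 0.1 nM hNppA.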
The depositor's hits bear a star; ? = inconclusive; & = joins results of further samples; [ ] = dose if it differs, or a comment. On the % scale 0 is the no-effect control and ±100 the full control effect; potency means the concentration at half of the fitted maximal effect. Not all compounds are listed (hit frequency here may not be typical).

| SMILES | NPR1 antag |
| --- | --- |
| COCC1CN(C)CC12CCN(S(=O)(=O)c1ccc3c(c1)CCC3)CC2 (configuration not stated) | -21.9% |
| COc1ccc(C(=O)N2CCC3(CC2)NCCc2c3[nH]c3ccc(OC)cc23)c(OC)c1 | 1.9% |
| Fc1ccc(OCCc2noc(C3CCCN3)n2)cc1 (configuration not stated) | 3.6% |
| O=C(c1cccnc1)N1CCC2(CC1)C(=O)NN=C2C1CC1 | 23.2%[70.6 µM] |
| Cc1cccc(-c2nc(CN3CCC(C(=O)N4CCc5nc6cc[nH]n6c(=O)c5C4)CC3)c(C)o2)c1 | -10.4% |
| CC(C)NC(=O)N[C@H]1C[C@H]2C(=O)NC[C@@H](CCC(=O)N3CCc4ccccc43)N2C1 | 0.5%[70.6 µM] |
| O=C(NC1CCN(C(=O)N2CC3CC(C2)[C@H]2CCCC(=O)N2C3)CC1)C1CCCCC1 (some centres not stated) | 1.6% |
| Cc1ccc(C(C(=O)O)N2CCC(CCN3CCCC3=O)CC2)cc1C (configuration not stated) | 5.6% |
| CCCCCC(=O)Nc1nc2c(s1)C[C@@H]1[C@](C)(CO)[C@H](O)CC[C@@]1(C)[C@@H]2CC(=O)NCCc1ccc(OC)c(OC)c1 | 5.4% |
| COCc1nc(C2CCN(C(=O)C3CCCC3)C2)no1 (configuration not stated) | -0.5% |
| COCCc1noc([C@@H]2CC(F)(F)CN2C(=O)Cn2ccc(C)n2)n1 | -2.9% |
| COCCN1CCC2(C1)CN(C)c1ccc(C(=O)NCc3ccccc3)cc12 (configuration not stated) | 2.5%[70.6 µM] |
| COc1ccc(C(=O)N2C(C(=O)N3CCCC3)COC23CCN(C(=O)Cc2ccccc2)CC3)cc1 (configuration not stated) | 1.2% |
| COc1ncccc1CN1CCC2(CC1)COCCN2C(=O)OCc1ccccc1 | -9.2%[70.6 µM] |
| COc1cccc(Nc2ncc3c(n2)C(C)(C(=O)NCc2ccc4c(c2)OCO4)CC3)c1 (configuration not stated) | ? |
| CCCNC(=O)C1COC2(CCN(C(=O)c3ccc(F)cc3)CC2)N1C(=O)c1ccc(F)cc1 (configuration not stated) | -4.4% |
| CCS(=O)(=O)N1CCOc2ccc(CN3CCc4ccccc4C3)cc2C1 | 0.1% |
| CC(C)c1nc2c(c(-c3ccc(O)cc3)n1)CCN(C(=O)c1ccc(F)cc1)CC2 | -0.4% |
| CC1(c2ccccc2)N(Cc2cccnc2)C(=O)OC12CCN(C(=O)c1ccccc1)CC2 (configuration not stated) | -6.5%[70.6 µM] |
| NC(=O)[C@H](CC1CCCCC1)NC(=O)[C@H]1CN(C(=O)c2cccc(F)c2)CCN1C(=O)C1CCNCC1 | 2.7% |
| CC(=O)NC1(C)CCCN(Cc2cccc(Nc3ccccc3)c2)C1 (configuration not stated) | -5.0%[70.6 µM] |
| COc1ccc(CN2C[C@@H]3C[C@H]2C(=O)Nc2ccccc2O3)cc1 | -1.1%[70.6 µM] |
| CCOc1ccc(C(=O)NC2CCN(c3cc(-c4ccccc4)[nH]n3)CC2)cc1OCC | -5.2% |
| COc1ccc(CC(=O)NC2CCCN(c3cc(-c4ccc(F)cc4)[nH]n3)C2)cc1OC (configuration not stated) | ? |
| Cn1cc(C(=O)N2CCC(C(=O)N3CCCCCCNC(=O)CC3)CC2)cn1 | -2.2% |

Quoted at random: four compounds from above, in no set order.
| SMILES | NPR1 antag |
| --- | --- |
| COc1ccc(C(=O)N2CCC3(CC2)NCCc2c3[nH]c3ccc(OC)cc23)c(OC)c1 | 1.9% |
| NC(=O)[C@H](CC1CCCCC1)NC(=O)[C@H]1CN(C(=O)c2cccc(F)c2)CCN1C(=O)C1CCNCC1 | 2.7% |
| Cc1ccc(C(C(=O)O)N2CCC(CCN3CCCC3=O)CC2)cc1C (configuration not stated) | 5.6% |
| COc1ccc(C(=O)N2C(C(=O)N3CCCC3)COC23CCN(C(=O)Cc2ccccc2)CC3)cc1 (configuration not stated) | 1.2% |

Further structures:
| SMILES | NPR1 antag |
| --- | --- |
| CC(C)n1cc2cc(C(=O)NCc3cnccn3)sc2c1 | 0.0% |
| C#CCNC(=O)[C@H]1O[C@H](CCN(C)CCN(C)C)CC[C@@H]1O | 3.9%[70.6 µM] |
| CC1=C[C@@H](CN2CCN(CCO)CC2)[C@H](C(C)C)C[C@H]1Cc1nnc(-c2ccc(C)cc2)o1 | 3.8% |
| O=C(c1cc2n(n1)CC(c1ccc(Br)cc1)OC2)N1CCOCC1 (configuration not stated) | -11.0% |
| CCCc1ccc(S(=O)(=O)N2C[C@@H](F)C[C@H]2C(=O)N2CCCCC2)cc1 | -6.5% |
| O=C(c1cccs1)N1CCC(Cc2nc(-c3ccncc3)n[nH]2)CC1 | 1.2% |
| Cc1ccc(-n2c(C3CCN(C(=O)c4cc(Cl)ccc4F)CC3)n[nH]c2=O)cc1 | 2.6% |
| N#Cc1ccc(S(=O)(=O)N2CCCOCCNC(=O)[C@@H]3CCCC[C@@H]32)cc1 | -1.0% |
| CN1CCN(c2cc(N3CC[C@H](CO)[C@H](O)C3)nc(N)n2)CC1 | 7.5% |
| Cc1noc(C)c1-c1cc2c(cc(-c3ccccc3)n2C)c(Nc2ccncn2)n1 | -17.4%[70.6 µM] |
| Cc1ccsc1-c1nc(-c2nnn3c2COC(c2ccc(Cl)cc2)C3)no1 (configuration not stated) | 11.3% |
| CCN(CC)c1cc(CCC(=O)NCCc2ccccn2)ccn1 | 0.4% |
| O=C1CC(c2ccccc2)N(Cc2ccncc2)CCCN(C(=O)c2cc3ccccc3[nH]2)CCN1 (configuration not stated) | ? |
| O=C(Cn1nc(-c2ccco2)ccc1=O)NC1CCCc2c1[nH]c1c(Cl)cccc21 (configuration not stated) | -1.9% |
| CN(C)C(=O)C1CN(C(=O)Nc2cc(F)cc(F)c2)CC12CCOCC2 (configuration not stated) | 2.7% |
| O=C(N[C@H]1CO[C@H]2[C@@H]1OC[C@@H]2Nc1nccc(C2CCCC2)n1)c1ccco1 | -20.8%[70.6 µM] |
| CCC(CC)NC(=O)[C@H]1CCC[C@H]1NC(=O)c1ccc(OC)cc1 | -6.9% |
| CN(C)C[C@@H]1CN(S(C)(=O)=O)C[C@H]1NC(=O)CCc1ccccc1 | 1.0% |
| N#Cc1c[nH]c(C(=O)N2CCN(Cc3cn[nH]n3)CC(O)C2)c1 (configuration not stated) | 10.2% |
| Cn1ccc2c(C(=O)NCCc3cnc[nH]3)nc(-c3ccc([S+](C)(=O)[O-])cc3)cc21 | 0.0%[70.6 µM] |
| Cc1nc(C(=O)N2CC[C@H](N3CCN(C)CC3)[C@H](CCCO)C2)cs1 | -0.5% |
| Cc1ccccc1C(=O)N1CCc2nc(C(C)C)nc(-c3ccc(O)cc3)c2CC1 | -4.4% |
| COc1ccc(C(=O)N[C@H]2C[C@@H](c3nc(-c4ccccc4)no3)N(C)C2)cc1 | -3.6%[70.6 µM] |
| C=CCC1(CO)CCCN(C(=O)Cc2ccc(CO)cc2)C1 (configuration not stated) | 2.7% |
| COc1ccccc1-c1nc(C(=O)NC2CC2)n2ccncc12 | -22.4%[70.6 µM] |
| O=C(NCc1ccncc1)[C@@H]1C[C@@H](c2ccc(F)cc2)N(Cc2ccccc2)C1 | 2.2%[70.6 µM] |
| COc1ccc(Cn2c(C(C)n3cccn3)n[nH]c2=O)cc1 (configuration not stated) | 1.6% |
| CS(=O)(=O)N(C1CC1)C1CCOC2(CCN(C(=O)c3ccccc3)CC2)C1 (configuration not stated) | -3.4% |
| CN(C)C(=O)c1cccnc1OC1CCN(C(=O)C2CCOCC2)CC1 | -7.8% |
| CN1c2cc(C(=O)NCc3ccc(F)cc3F)ccc2C(=O)N2CCCC21 (configuration not stated) | 0.0% |
| Cc1ccccc1OCc1nc(C2CN(C(=O)c3nccc4ccccc34)C2)no1 | ? |
| CC1=C[C@@H](CNC(=O)CCC(=O)O)[C@H](C(C)C)C[C@H]1CC(=O)NCc1ccc(C#N)cc1 | 3.8% |
| CC(C)(C)C(=O)NCc1ccnc2[nH]ccc12 | 9.9%[70.6 µM] |
| Cn1cnc(S(=O)(=O)N2CCC3(CC2)CC(OCC2CC2)CCO3)c1 (configuration not stated) | 0.0% |
| O=C1[C@@H]2C[C@@H](CN2Cc2nccs2)Oc2ccccc2N1CC1CC1 | -29.0%[70.6 µM] |
| O=C(Nc1ccccc1)[C@H]1O[C@H](CCN2CCOCC2)CC[C@@H]1O | 7.7%[70.6 µM] |
| CN1[C@@H](CCC(=O)NCc2ccco2)CNC(=O)[C@@H]2[C@H]1CCN2Cc1ccccn1 | 4.6%[70.6 µM] |
| COc1ccc2c(c1)nc1n2[C@@H](CNC(C)C)COC1 | 1.3%[70.6 µM] |
| O=C(CCC[C@@H]1[C@H]2CCCN3CCC[C@@H](CN1C(=O)NC1CCCCC1)[C@@H]23)NCC1CC1 | 1.1% |
| O=c1cc(-c2cccnc2)oc2c(-c3ccccc3F)nccc12 | 0.7%[70.6 µM] |
| NS(=O)(=O)c1ccc(CCNC(=O)CCC2CCN(C(=O)c3ccccc3)CC2)cc1 | -1.6% |
| COC(=O)CNC(=O)c1nc(-c2ccc(Cl)cc2)c2ccccn12 | 16.9%[70.6 µM] |
| Clc1ccccc1CNC[C@H]1Cn2ccnc2CO1 | 7.8%[70.6 µM] |
| O=C(NC[C@H]1O[C@H](Cc2cc(COc3ccccc3)on2)CC[C@@H]1O)Nc1cccc(F)c1 | -11.9% |
| CC(C)NC(=O)C[C@@H]1O[C@H](CNC(=O)c2ccccc2)[C@@H](O)[C@H]1O | -0.6%[70.6 µM] |
| COCCn1cnc2ccc(OCc3ccc(Cl)cc3)nc2c1=O | -21.3%[70.6 µM] |
| CCN1c2cc(C(=O)Nc3ccc(F)c(Cl)c3)ccc2C(=O)N2CCCCC21 (configuration not stated) | -11.6% |
| O=C(CCc1ccccc1)N1CCC2(CC1)CC(OCC1CC1)CCO2 (configuration not stated) | -18.3% |
| COc1cccc(CCC(=O)N[C@@H]2CN(c3ncccn3)C[C@H]2CO)c1 | -0.5% |
| O=C1N(Cc2ccc(F)cc2)CCCC12CCN(c1nc3ccccc3o1)C2 (configuration not stated) | -19.2% |

(next part)
| SMILES | NPR1 antag |
| --- | --- |
| Cn1c(Cn2cccn2)nnc1C1CC(NC(=O)c2sccc2N)C1 (configuration not stated) | -0.5%&-0.4% |
| CC1(C(=O)NCC2CCCO2)COCc2cnc(Nc3ccccc3)nc21 (configuration not stated) | 6.6%[70.6 µM] |
| CC1=C(C(=O)OC(C)(C)C)C(c2ccccc2)N2C(CC(=O)NCc3ccco3)=CSC2=N1 (configuration not stated) | -20.1% |
| COCC(=O)N1CCCC(C(=O)NCCCn2nc(C)c(Cl)c2C)C1 (configuration not stated) | -0.6% |
| Cn1cccc1CN1CCC2(CC1)CC(c1cccnc1)=NO2 | -0.5%[70.6 µM] |
| Cn1cc(CN2CCN3C(=O)N(Cc4ccc(F)cc4)C[C@H]3C2)cn1 | 5.9%[70.6 µM] |
| Cc1cc2c(-c3cccc(CO)c3)nc(-c3c(C)noc3C)cc2[nH]1 | -11.6%[70.6 µM] |
| O=C(Cc1cccc(F)c1)N1CCOc2ccc(CN3CCc4ccccc4C3)cc2C1 | -29.6% |
| CC(C)(C)c1ccc(-c2cc(C[C@H]3CNCC[C@H]3CC(=O)NCCN3CCOCC3)no2)cc1 | -2.3% |
| Cc1ncc(C(=O)N2CCC3(CC2)Nc2ccccc2NC3=O)c(=O)[nH]1 | -0.4% |
| Cc1ccc(NC(=O)C2CCN(C(=O)c3ncn4c3COC(c3ccccc3)C4)CC2)cc1C (configuration not stated) | 6.4% |
| O=C(NC[C@H]1OC[C@@H](NCc2ccccn2)[C@@H]1O)c1cccs1 | 5.0%[70.6 µM] |
| O=S(=O)(c1ccc(F)cc1)N1CCC(c2noc(C3CC3)n2)C1 (configuration not stated) | -12.6% |
| CCc1cc(=O)n(CC(=O)Nc2ccccc2F)c(-c2ccccc2)n1 | -9.1% |
| CCOc1ccccc1NC(=O)Cn1c(-c2ccc(F)cc2)nc(C)c(CCO)c1=O | 2.9% |
| C=CCNC(=O)CC1COc2ccc(C(=O)NCCOC)cc2N1C (configuration not stated) | -0.3% |
| COc1cc(C)ccc1OCc1cc(C(=O)N(C)Cc2ncccc2C)no1 | 2.6% |
| COc1ccccc1C(=O)N1CCC(C(NC(=O)c2ccccc2C)C(=O)N2CCCC2)CC1 (configuration not stated) | 0.2% |
| COc1cc(SC)ccc1C(=O)N[C@@H]1C=C(C(=O)N[C@H](C)C(N)=O)C[C@@H](O)[C@@H]1O | -0.6%[70.6 µM] |
| O=C(NCCc1noc(C2CC2)n1)NCc1ccc(F)cc1 | 4.2% |
| CCC(CC)C(=O)N1C[C@@H]2OCC(=O)N(Cc3ccccc3)[C@@H]2C1 | 5.5%[70.6 µM] |
| OCCOc1ccc(CN(CCN2CCCCC2)CC2CCCN(C3CCCC3)C2)cc1 (configuration not stated) | 3.5% |
| COc1cc([C@@H]2C[C@H](NC(C)=O)C[C@H](Cc3ccccc3)O2)cc(OC)c1O | -1.8% |
| O=C(NCCOc1cccc2cccnc12)C1CCCN(C2CCCC2)C1 (configuration not stated) | -0.9% |
| Cn1cc([C@@H](NC(=O)CCc2ccc3c(c2)OCO3)C2CC(O)C2)cn1 (some centres not stated) | -10.6% |
| NC(=O)c1ccc(OC2CCN(Cc3ccccn3)C2)nc1 (configuration not stated) | 7.8% |
| Cc1ccc(C)c(NC(=O)c2cc3c(N4CCSCC4)nc(C)cn3n2)c1 | -4.5% |
| O=C(NCCC1CCN(C(=O)Nc2ccc(F)cc2F)CC1)c1ccsc1 | -2.0% |
| CCOc1ccccc1NC(=O)Nc1cccc(-c2ccc(N3CCOCC3)nn2)c1 | -25.3% |
| C[C@@H]1CN(C(=O)Cc2ccc3c(c2)OCO3)C[C@@]1(O)C1CCC1 | 0.0% |
| CCCc1nc(CC)c2c(=O)[nH]ccn12 | 7.2% |
| Cc1noc(C)c1S(=O)(=O)N[C@@H]1C[C@H](Cn2cc(-c3cccnc3)nn2)[C@@H](O)[C@H]1O | -1.7% |
| Cc1ccsc1[C@@H]1CCN(Cc2cn[nH]c2-c2ccc(F)cc2)C[C@H]1O | 4.4% |
